GIV Gai3 FP – GIV-Galpha-i interaction inhibition; Galpha-i3/FITC-GIV peptide fluorescence polarization, 90 min; stronger effect = lower value; scaled: aluminum fluoride 0%, vehicle 100%; percent of control (FP), % (concentration not given with the values); 210,000 tested, 0.42% active;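 active means replicate mean at 85% of control or lower, very high polarization wells dropped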;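 further: wells of about 15 µL received 100 nL stock; the first replicate is given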
Target sequence (P08753 whole entry, looked up): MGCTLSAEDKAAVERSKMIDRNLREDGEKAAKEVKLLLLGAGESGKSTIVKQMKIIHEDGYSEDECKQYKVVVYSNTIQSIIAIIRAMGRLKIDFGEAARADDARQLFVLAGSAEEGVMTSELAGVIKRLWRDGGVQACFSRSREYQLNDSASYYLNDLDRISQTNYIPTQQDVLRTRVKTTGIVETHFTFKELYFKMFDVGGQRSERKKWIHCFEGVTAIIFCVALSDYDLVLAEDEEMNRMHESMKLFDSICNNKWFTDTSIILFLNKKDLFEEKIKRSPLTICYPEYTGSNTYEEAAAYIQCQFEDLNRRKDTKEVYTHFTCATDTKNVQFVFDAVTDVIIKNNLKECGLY
* hit, by the source's call.

smiles	GIV Gai3 FP
O=S(=O)(c1cc(-c2nnc(C3CC3)o2)co1)N1CCN(c2ccccc2)CC1	100.9
CS(=O)(=O)N[C@H]1C[C@@H]2C[C@H]1N(C(=O)c1ccc3c(c1)OCO3)C2	98.5
COc1cc(OC)c(C2N(Cc3ccccc3)CCN2Cc2ccccc2)cc1Br	111.9
CC(C)(C)c1cc(CCC(=O)OCCOC(=O)CCc2cc(C(C)(C)C)c(O)c(C(C)(C)C)c2)cc(C(C)(C)C)c1O	110.5
CC(=O)Nc1ccc(-c2noc(C3CCCN(C(=O)c4cc5ccccc5[nH]4)C3)n2)cc1 (configuration not stated)	106.0
Cc1ccc(N2NC3(CCC(C)CC3)NC2=S)cc1 (configuration not stated)	104.1
COc1ccc(Nc2nc(NCCC3=CCCCC3)nc(N3CCOCC3)n2)cc1	100.8
CC(C)c1cc(C2CCCN2C(=O)Nc2ccc3c(c2)OCO3)on1 (configuration not stated)	104.7
CCc1ccc(C2=NN(c3ccccc3)C3(SC(C(C)=O)=NN3c3cccc(Cl)c3)c3ccccc32)cc1 (configuration not stated)	95.3
CC(=O)Nc1ccc(-n2sc3c(c2=S)-c2cccc(C)c2NC3(C)C)cc1	103.7
Cc1[nH]c2ccccc2c1C(=O)C(=O)NC1CC(=O)N(c2ccc3c(c2)OCCO3)C1 (configuration not stated)	101.0
COC12CC3CC(CC(CO)(C3)O1)C2	108.8

5 structures already listed, ordered by length of the SMILES, high to low.
smiles	GIV Gai3 FP
CC(C)(C)c1cc(CCC(=O)OCCOC(=O)CCc2cc(C(C)(C)C)c(O)c(C(C)(C)C)c2)cc(C(C)(C)C)c1O	110.5
CC(=O)Nc1ccc(-c2noc(C3CCCN(C(=O)c4cc5ccccc5[nH]4)C3)n2)cc1 (configuration not stated)	106.0
CS(=O)(=O)N[C@H]1C[C@@H]2C[C@H]1N(C(=O)c1ccc3c(c1)OCO3)C2	98.5
CC(C)c1cc(C2CCCN2C(=O)Nc2ccc3c(c2)OCO3)on1 (configuration not stated)	104.7
COC12CC3CC(CC(CO)(C3)O1)C2	108.8

The listing continues.
smiles	GIV Gai3 FP
O=C(Nc1cc(F)ccc1F)c1nc(N2CCCCC2)c2oc3ccccc3c2n1	111.4
CCn1c(SCc2ccccc2F)nnc1-c1ccc2c(c1)OCCCO2	101.0
CCOC(=O)c1cc(N2C(=O)C3C4C=CC(C(OC(C)=O)OC(C)=O)(O4)C3C2=O)ccc1Cl (configuration not stated)	99.4
O=C(Nc1nnc(-c2cccc([N+](=O)[O-])c2)s1)c1ccc(N2C(=O)CCC2=O)cc1	100.0
Cn1c(=O)c2c(nc(Cl)n2CC(=O)c2ccc([N+](=O)[O-])cc2)n(C)c1=O	103.4
COc1ccc(OC)c(C2Nc3ccc(C)cc3[C@H]3OCC[C@@H]23)c1 (some centres not stated)	98.5
O=C(CC1CCCC1)NCc1c(-c2ccc(F)cc2)nc2n1CCS2	96.3
Cn1c(NC(=O)c2cccc(Br)c2)cc(=O)n(C)c1=O	106.7
CN(C)c1ccc(C2C(N3C(=O)c4ccccc4C3=O)C(=O)N2c2ccc(Br)cc2)cc1 (configuration not stated)	116.6
CNC(=O)CN1c2ccccc2NC2=C(C(=O)CC(C)(C)C2)C1c1ccc(C)cc1 (configuration not stated)	105.5
CCOC(=O)CN1C(=O)C(O)(CC(=O)c2cc(O)ccc2O)c2ccccc21 (configuration not stated)	103.6
Cc1ccccc1-n1nc2c(c1NC(=O)c1cc(Br)ccc1Cl)CS(=O)(=O)C2	118.4
COc1ccc(N2C(=O)C3C(c4ccccc4Cl)OC4(C(=O)c5ccccc5C4=O)C3C2=O)c(OC)c1 (configuration not stated)	105.3
COc1cc(C2/C(=C(\O)c3ccccc3)C(=O)C(=O)N2c2cccc(C(F)(F)F)c2)ccc1O (configuration not stated)	107.6
O=P(c1ccccc1)(c1ccccc1)c1nc(-c2ccc(Cl)cc2)oc1N1CCOCC1	105.3
Cc1nn(-c2ccc(Cl)cc2)c2sc(C(=O)Nc3ccccc3F)cc12	100.5
O=C1C=C(c2ccccc2)C[C@H](c2ccccc2)[C@H]1n1cnc([N+](=O)[O-])n1	106.1
Cc1ccc([N+](=O)[O-])cc1S(=O)(=O)n1ccnc1C	105.9
COc1ccccc1NC(=O)c1sc(=S)n(-c2ccccc2C)c1N	109.3
COc1cc(OC)c(NS(=O)(=O)c2cc(-c3cc(C(F)(F)F)on3)sc2C)cc1Cl	99.8
COc1ccc(Cl)cc1NC(=O)c1cncc(-c2cccc(C)c2)c1	101.1
COc1ccc2c(c1)-c1c(ssc1=S)C(C)(C)N2C(=O)c1cccc(Cl)c1	103.5
CC1CCN(S(=O)(=O)c2ccc(-c3nnc(C(C)C)o3)o2)CC1	109.6
COc1ccc(C2(CNC(=O)CC(c3ccccc3)c3ccccc3)CCCC2)cc1OC	110.3
CCC(NC(=O)C1CC(=O)N(c2ccc3c(c2)CCN3C(C)=O)C1)c1cccs1 (configuration not stated)	102.3
COc1cccc(NC(=O)CSc2nc3c(c(-c4ccco4)c2C#N)CCCC3)c1	115.8
CCCN1C(SCC(=O)Nc2ccccc2CC)=NS(=O)(=O)c2ccccc21	103.1
CCc1nc2ccc(C(=O)NCc3ccc(C)cc3)cc2nc1CC	102.4
O=C1CC(c2ccccc2)CC2=C1C(c1ccc(OCc3ccccc3)cc1)Nc1ccc3ccccc3c12 (configuration not stated)	121.1
CCCCCCCCCC[N+](CC)(CC)CCOc1ccc2c(c1)C(=O)c1cc(OCC[N+](CC)(CC)CCCCCCCCCC)ccc1-2	110.6
Cc1ccc(/C(O)=C2/C(=O)C(=O)N(c3ccc(O)cc3)C2c2cccc(F)c2)cc1 (configuration not stated)	105.7
NC(=O)CC1(C(=O)O)NC(c2ccccc2O)C2C(=O)N(c3ccccc3[N+](=O)[O-])C(=O)C21 (configuration not stated)	115.2
Cn1c(=O)c2c(nc3n(Cc4ccco4)c(-c4ccccc4)cn23)n(C)c1=O	104.0
CCn1c(SCC(=O)N2CCc3ccccc32)nnc1-c1cc2ccccc2o1	103.0
Cc1ccc(C2(CC(=O)OCCCC(C#N)c3ccccc3)CCOC(C)(C)C2)cc1 (configuration not stated)	101.4
O=C(NCCCN1CCCCC1)C1CCN(c2ncc(-c3ccccc3)cn2)CC1	102.2
Cn1c(=O)n(C)c2cc(S(=O)(=O)Nc3ccc(F)cc3F)c(Cl)cc21	106.2
COc1ccc(N(CC(=O)NCCSc2ccc(Cl)cc2)S(=O)(=O)c2ccc(C)cc2)cc1	101.2
COc1ccc(CCNc2ccc(C(=O)N3CCCCC3)cc2S(=O)(=O)Nc2cccc(C(F)(F)F)c2)cc1OC	105.6
Cc1ccc(C2C3=C(Nc4ncnn42)c2ccccc2OC3c2cccc([N+](=O)[O-])c2)cc1 (configuration not stated)	98.3
COc1ccc(NC(=O)CSc2nc3c([nH]c4ccccc43)c(=O)n2C)c(OC)c1	105.1
CCC(Sc1nncn1C)C(=O)Nc1cc(C)on1 (configuration not stated)	105.6
COC(=O)c1ccc2c(=O)n(CCc3ccc(S(N)(=O)=O)cc3)c(SCC(=O)Nc3ccccc3OC)nc2c1	111.4
Cc1csc(-c2cc(S(=O)(=O)NCCC3=CCCCC3)cn2CC(=O)N2CCCC2)n1	106.2
CCCCN(CC)c1ccc2nnc(CCc3nc(-c4ccncc4)no3)n2n1	103.2
COc1ccc(Oc2coc3cc(OC(=O)c4cc(OC)c(OC)c(OC)c4)ccc3c2=O)cc1	99.8
Cc1cc2c(cc1C)NC1(CCCCC1)C(=NCc1cccc(F)c1)N2	98.5
CCN(CC)S(=O)(=O)c1ccc2c(c1)cc(C(=O)NCCc1c[nH]c3ccc(Cl)cc13)n2C	101.9

(listing goes on)
| Molecule | GIV Gai3 FP |
| --- | --- |
| Cn1c(SCC(=O)Nc2ccc3nc(SCC(=O)N4CCOCC4)sc3c2)nnc1-c1ccccc1 | 110.0 |
| CC(C)c1cc(C2CCCN2Cc2cccs2)no1 (configuration not stated) | 109.0 |
| O=C(CSc1nc2c(sc3ccccc32)c(=O)n1C1CCN(Cc2ccccc2)CC1)NC1CCCC1 | 100.8 |
| CCc1nc(-c2cc(S(=O)(=O)Nc3ccccc3Br)c(C)s2)cs1 | 109.0 |
| CCCOc1ccc(CNC(=O)c2cccc(-c3cc(Oc4ccccc4OC)ncn3)c2)cc1 | 108.0 |
| CCOc1ccccc1N(C)S(=O)(=O)c1ccc2[nH]cc(C(=O)N3CCc4ccccc43)c(=O)c2c1 | 108.3 |
| Cn1c(=O)n(CC(=O)N2CCCC2)c(=O)c2cc(S(=O)(=O)NC3CCCCC3)ccc21 | 102.5 |
| Clc1cc2nc(-c3ccccc3)c(-c3ccccc3)nc2cc1Cl | 110.6 |
| Cc1ccc(N2C(=O)C(=O)/C(=C(\O)c3ccccc3)C2c2ccc(N(C)C)cc2)cc1 (configuration not stated) | 109.9 |
| Clc1ccc(-c2csc(Cc3nc(-c4ccccc4)no3)n2)cc1 | 126.4 |
| O=S(=O)(c1cccc2ccccc12)n1nnc2ccccc21 | 102.8 |
| Cc1ccc(-c2n[nH]c3c2C(c2cccc([N+](=O)[O-])c2)N(c2ccc(F)cc2)C3=O)cc1 (configuration not stated) | 109.7 |
| CC(=O)N1CCCc2cc(S(=O)(=O)N3CCC(C(=O)Nc4cccnc4)CC3)ccc21 | 94.7 |
| CC1CCc2cc(F)ccc2N1C(=O)c1ccc(N2CC3CC(C2)c2cccc(=O)n2C3)c(NC(=O)c2ccncc2)c1 (configuration not stated) | 107.9 |
| CCSc1nc2cc(-c3ccccc3)sc2c(=O)n1C | 101.7 |
| Cc1[nH]c2ccccc2c1C1c2cc([N+](=O)[O-])ccc2OC2(N3CCOCC3)CCCCC12 (configuration not stated) | 112.1 |
| Clc1nc(NCc2ccco2)nc(Nc2ccc3c(c2)OCO3)n1 | 102.2 |
| O=C(CN1C(=O)c2ccccc2C1=O)Nc1cnc2ccccc2c1 | 98.0 |
| O=C(C1CC(=O)N(C2CCCCCC2)C1)N1CCOCC1 (configuration not stated) | 95.8 |
| O=C(Nc1cccnc1Cl)c1cnn2c(C(F)(F)F)cc(-c3ccc(Br)cc3)nc12 | 112.1 |
| Cc1nn2cc(-c3ccccc3)nc2[nH]c1=O | 104.6 |
| O=C(NCc1ccc2c(c1)OCO2)C1CCCN(C(=O)C2Sc3ccccc3NC2=O)C1 (configuration not stated) | 105.9 |
| COc1ccc(OCC(=O)N2CCCC(c3nc(-c4ccc(NC(C)=O)cc4)no3)C2)cc1 (configuration not stated) | 104.5 |
| COc1ccc(C(=O)Nc2cnc3oc(-c4ccc(OC)cc4)nn3c2=O)cc1 | 107.4 |
| CCCCS(=O)(=O)N1CCc2c(c(-c3nnc(SCC)n3CC)nn2C)C1 | 106.2 |
| C=CCn1cnc2c(-c3ccc(C)cc3)csc2c1=O | 108.4 |
| COc1ccc(-n2c3c(cc(C(=O)N4CCN(CCO)CC4)c2=O)C(=O)CC(C)(C)C3)cc1 | 109.3 |
| Cc1ccc(NCC(O)Cn2c(-c3ccccc3)c(-c3ccccc3)c3cc(C)cc(C)c32)cc1 (configuration not stated) | 113.2 |
| COC(=O)C1=C(C(=O)OC)SC2(S1)C(C(=O)OC)=C(C(=O)OC)SC1=C2c2cc(OC)ccc2N(C(=O)C(C)C)C1(C)C | 106.5 |
| CCOc1ccc(NC(=O)CN2CCc3c(c(=O)c4cc(C)ccc4n3C)C2)cc1 | 105.2 |
| CCOc1ccc(-n2nnnc2CNC(=O)Nc2cccc(OC)c2)cc1 | 105.2 |
| CC1(C)CC2(CC(c3ccccc3)Oc3cc(O)ccc32)NC(=S)N1 (configuration not stated) | 109.6 |
| CCn1cnc2c1CN(S(=O)(=O)c1ccc(Cl)s1)CC2 | 104.0 |
| CSc1nc(N)nc(SCC(=O)Nc2nc3ccccc3s2)c1C#N | 101.4 |
| Cn1c2c(c(=O)n(C)c1=O)C(c1cccc(Br)c1)C1C(=O)c3ccccc3C1=N2 (configuration not stated) | 114.6 |
| COc1cc(NC(=O)CSc2nc3ccc(OC)cc3[nH]2)cc(OC)c1 | 106.4 |
| Cc1cc(C(=O)C2CC(=O)Nc3c2c(C)nn3-c2cccc(Cl)c2)c(C)s1 (configuration not stated) | 104.4 |
| COCc1cc(C)nc2oc(C(=O)c3ccccc3)c(N)c12 | 102.3 |
| Cc1oc(C2CCC2)nc1C(=O)NC(C)c1ccco1 (configuration not stated) | 108.7 |
| CCOC(=O)c1sc2nc(SCC#N)n(Cc3ccc(C)cc3)c(=O)c2c1C | 105.0 |
| O=c1[nH]c(N2CCN(C3CCCCC3)CC2)nc2c(-c3ccc(F)cc3)csc12 | 113.7 |
| Cc1ncc2c(n1)CCN(S(=O)(=O)c1cccc3cccnc13)C2 | 100.1 |
| Cc1nn(-c2ccc3nnc(C)n3n2)c2c1C(c1cccc(Cl)c1)CC(=O)N2 (configuration not stated) | 101.1 |
| Cn1c(=O)c([N+](=O)[O-])c(Cl)c2ccccc21 | 111.2 |
| COc1cc(Cl)c(NS(=O)(=O)c2cc(-c3cc(C)no3)cs2)c(OC)c1 | 101.8 |
| N#CC(=C1CCCCC1)c1nc(-c2ccc(Br)cc2)cs1 | 102.0 |
| O=C(NC1CCCCC1)c1ccc2c(c1)OCCCO2 | 97.6 |
| O=C(O)c1ccccc1N1C(=O)c2cccc3c(Br)c([N+](=O)[O-])cc(c23)C1=O | 109.3 |

Reformatted with the structure last: 5 of the compounds above.
| GIV Gai3 FP | SMILES |
| --- | --- |
| 109.6 | CC1(C)CC2(CC(c3ccccc3)Oc3cc(O)ccc32)NC(=S)N1 (configuration not stated) |
| 104.0 | CCn1cnc2c1CN(S(=O)(=O)c1ccc(Cl)s1)CC2 |
| 101.4 | CSc1nc(N)nc(SCC(=O)Nc2nc3ccccc3s2)c1C#N |
| 114.6 | Cn1c2c(c(=O)n(C)c1=O)C(c1cccc(Br)c1)C1C(=O)c3ccccc3C1=N2 (configuration not stated) |
| 106.4 | COc1cc(NC(=O)CSc2nc3ccc(OC)cc3[nH]2)cc(OC)c1 |

Following part
| Molecule | GIV Gai3 FP |
| --- | --- |
| CN1CCC2(CC1)N=C(c1ccc(Br)cc1)CC(c1cc(Cl)ccc1O)N2 (configuration not stated) | 97.4 |
| COc1ccc(-c2nc(-c3ccccc3)c(-c3ccc([N+](=O)[O-])cc3)[nH]2)cc1 | 113.9 |
| CCOC(=O)c1[nH]c(C)c(CN(C(=O)Nc2cc(Cl)c(OC)cc2OC)C2CCCCC2)c1C | 98.2 |
| COc1cc(C(=O)Nc2cc(-c3nc4cc(C(C)C)ccc4o3)ccc2Cl)cc(OC)c1OC | 100.6 |

The list is partial, so the mix of outcomes need not match the whole.
